Assay outcomes (PubChem)
Autofluor counter – flagged as autofluorescent in microsphere protease counterscreen | compound autofluorescence counterscreen, microsphere flow cytometry; hits give high values | fluorescence intensity (test concentration not listed) | 3.1% of 360,000 active;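 active means at least 3 SD above the mean of all compounds, about 16000 in these data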;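 further: 100 nL of 1 mM stock went into each well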
* hit, by the source's call. The list is partial; the hit share may differ from the screen's.

SMILES	Autofluor counter
COc1ccccc1Cc1c(-c2ccc(C#N)cc2)nc2c3ccccc3ccn12	6270
COc1cc(CN2C[C@@H](CO)O[C@@H](n3cnc4c(NC5CCC5)ncnc43)C2)cc(OC)c1OC	3710
CCCCN(CCCC)Cc1cc(=O)oc2cc(C)cc(C)c12	5812
CCNC(=S)Nc1ccc2c(c1)c(=O)n(C)n2Cc1cccc(C(F)(F)F)c1	3792
O=C(NCCO)c1ccc(-c2ccc3nncn3c2)cc1	2846
CCCCn1nnnc1C(c1cc2ccccc2o1)N(C)Cc1ccc(Cl)c(Cl)c1 (stereo unspecified)	5870
COc1cccc(-c2cnc(C(O)c3cc(F)cc(Cl)c3)[nH]2)c1 (stereo unspecified)	3474
CC1=C(C(=O)N2CCOCC2)CC(CC(=O)NCCCN(C)C)C(=O)N1Cc1ccc(F)cc1 (stereo unspecified)	5951
CC1(C(=O)NS(=O)(=O)C2CC2)CCCN(C(=O)c2c(F)cccc2F)C1 (stereo unspecified)	3696
COc1ccc(-n2nnnc2C(c2cccs2)N2CCN(C/C=C/c3ccccc3)CC2)cc1 (stereo unspecified)	5684
CC1(C(=O)NS(=O)(=O)c2cccc(F)c2)CCN1C(=O)c1cccc2ccccc12 (stereo unspecified)	2924
OC(c1cccc(Cl)c1)c1nc(-c2ccc3c(c2)OCO3)cs1 (stereo unspecified)	2777
Cc1ccc(C)c(S(=O)(=O)Nc2ccc(C(=O)NCCCN(C)C)cc2)c1	3908
CC1(C(=O)NS(=O)(=O)c2ccccc2Cl)CCN1C(=O)CC(c1ccccc1)c1ccccc1 (stereo unspecified)	3937
Cc1noc(C)c1C(=O)N1CCC1(C)C(=O)NS(=O)(=O)c1ccc(C#N)cc1 (stereo unspecified)	3987
COc1ccc(-c2ccc(CN3C(C)C(=O)N(Cc4cn(CCC5OCCCO5)nn4)CCS3(=O)=O)cc2)cc1 (stereo unspecified)	3381
c1ccc2c(c1)oc1c(-c3cccc4nccn34)cccc12	2948
COc1ccc(CCNC(=O)c2cc3cc(Cl)ccc3nc2N)cc1OC	6317
Cc1nc(N)sc1-c1csc(Nc2cc(N(C)C)ccc2Cl)n1	3669
C[C@@H]1CN([C@H](C)CO)C(=O)c2cc(C#CC(C)(C)O)cnc2O[C@@H]1CN(C)C(=O)C1CC1	3733
CC(C)c1ccc(NC(=O)C2Cc3c(-c4ccc(Cl)cc4)ccnc3O2)cc1 (stereo unspecified)	2786
CC(C)NC(=O)Nc1ccc2c(c1)C(=O)N([C@H](C)CO)C[C@H](C)[C@@H](CN(C)Cc1ccc(C(F)(F)F)cc1)OCCCC[C@@H](C)O2	3542
Cc1cc(C)cc(Cn2cc(CN3CC(N4CCN(C)CC4)CS3(=O)=O)nn2)c1 (stereo unspecified)	4347
Cc1oc(-c2cccs2)cc1C(=O)N1CCCC(C)(C(=O)O)C1 (stereo unspecified)	3645

Quoted at random: four entries already listed.
SMILES	Autofluor counter
Cc1cc(C)cc(Cn2cc(CN3CC(N4CCN(C)CC4)CS3(=O)=O)nn2)c1 (stereo unspecified)	4347
COc1ccc(-c2ccc(CN3C(C)C(=O)N(Cc4cn(CCC5OCCCO5)nn4)CCS3(=O)=O)cc2)cc1 (stereo unspecified)	3381
Cc1noc(C)c1C(=O)N1CCC1(C)C(=O)NS(=O)(=O)c1ccc(C#N)cc1 (stereo unspecified)	3987
CC(C)NC(=O)Nc1ccc2c(c1)C(=O)N([C@H](C)CO)C[C@H](C)[C@@H](CN(C)Cc1ccc(C(F)(F)F)cc1)OCCCC[C@@H](C)O2	3542

New compounds follow:
SMILES	Autofluor counter
CC(=O)Nc1cccc(Nc2ccc(C#N)cc2)c1	6884
CC(=O)c1cc2c(cc1NC(=O)CSc1ncccn1)OCO2	3903
CCCCCCNC(=O)O[C@H]1C[C@H](C(=O)OC)[C@H](C(=O)OC)C2CN(S(=O)(=O)c3ccc(C)cc3)C[C@@]21O (stereo partly specified)	3483
C[C@@H]1CCCCO[C@H](CN(C)S(=O)(=O)c2ccc(F)cc2)[C@@H](C)CN([C@H](C)CO)C(=O)c2cc(NC(=O)Nc3ccc(C(F)(F)F)cc3)ccc2O1	3925
N#CC1(NC(=O)COC(=O)Cc2c[nH]c3ccccc23)CCCCC1	4014
COc1ccc(-c2nn(-c3ccccc3)cc2CNC[C@H]2O[C@@H](n3cnc4c(=O)[nH]c(N)nc43)[C@H](O)[C@@H]2O)cc1	6002
COc1ccc(OC(=O)N(C)C[C@@H]2OCc3ccccc3-c3c(n(C)c4ccccc34)C(=O)N([C@H](C)CO)C[C@@H]2C)cc1	2955
O=C(NCC1CC1)c1cccs1	4832
CN1OC[C@@H]2CN[C@H](c3ccc(-c4ccc(C#N)cc4)cc3)C[C@@H]21	3690
Cn1c(=O)c2cc(NC(=S)NC3CCCCC3)ccc2n1Cc1ccc(Cl)cc1	3601
O=[N+]([O-])c1ccc(N2CCCC2)c([N+](=O)[O-])c1	3726
CCCCN1C(=O)C(CC(=O)NCCCCc2ccccc2)CC(C(=O)N(C(C)C)C(C)C)=C1C (stereo unspecified)	3383
CC1(C(=O)N2Cc3ccccc3C2)CCN1C(=O)C1(c2ccccc2)CC1 (stereo unspecified)	3868
O=C(COc1ccc(Cl)cc1Cl)NC1CC1	3944
O=C(Nc1ccc(F)c(Cl)c1)C1Cc2c(-c3ccc4c(c3)OCO4)ccnc2O1 (stereo unspecified)	3458
CCOC(=O)c1ccc(NC(=O)c2ncn3c2C(=O)NC[C@H]3C)cc1	3010
CCCCCCCCN1C(=O)[C@H](CC(=O)NCCCOCCCC)C[C@@]2(C(=O)OC)CCCCC=C12	6076
Cc1ccc(S(=O)(=O)N2C[C@H]3C(=O)C[C@@H](c4ccccc4)N(S(=O)(=O)c4ccc(C)cc4)[C@H]3C[C@H]2c2cccs2)cc1	6055
CN(C)c1ccc2c(=O)c3ccccc3oc2n1	6140
CCN(C)c1cc2c(c3c1ccn3C)C1CCC2C1 (stereo unspecified)	4116
CN(CC(=O)Nc1cccc(F)c1)C(=O)c1cccc(S(=O)(=O)N2CCN(Cc3ccccc3)CC2)c1	3480
COc1cc2cc(C(=O)NC(C)c3cccc4ccccc34)c(N)nc2cc1OC (stereo unspecified)	4282
CC(=O)Nc1cc(-c2ccccc2CN(C)C)cn2c(-c3ccc(C(C)=O)cc3)cnc12	3808
COc1cccc(NC(=O)C2(C)CCN2CC2CCCCC2)c1 (stereo unspecified)	3506
C=C1C(=O)[C@]23C[C@H]1CC[C@H]2[C@]1(C)[C@@H](OC(C)=O)CC[C@@](C)(C(=O)O)[C@H]1C[C@@H]3OC(C)=O	5785
COC(=O)c1ccc(CNC(=O)COC(=O)/C=C/c2cccc(OC)c2)cc1	3008
COc1ccc(/C=C2\SC(=Nc3ccccc3Cl)NC2=O)c(OC)c1	3613
CCOC(=O)c1ccc(S(=O)(=O)N2CCC(N3CCCCCC3)CC2)cc1	4967
Cc1noc(C)c1C(=O)OC(C)C(=O)c1c[nH]c2ccccc12 (stereo unspecified)	4080
C[C@H](CO)N1C[C@H](C)[C@@H](CN(C)Cc2cccc(C(=O)O)c2)Oc2cc(Br)ccc2S1(=O)=O	3261
Cc1cccc(S(=O)(=O)N(C)C[C@H]2OCc3cn(nn3)CCCC(=O)N([C@@H](C)CO)C[C@@H]2C)c1	3528
CC(=O)NCCNc1nc2cc(-c3cccc(C(F)(F)F)c3)sc2c(=O)n1C	3548
CCCNC(=O)C1(C)CCCN(Cc2cccs2)C1 (stereo unspecified)	3088
Cc1ccc([C@H]2C[C@H](O)[C@@H](n3cc(COC(=O)c4ccccc4)nn3)CN2C(=O)c2cccs2)cc1	2945
CCCCCCCCCCC(C(=O)O)C1(C(=O)O)CCC(=O)O1 (stereo unspecified)	5344
O=C(CN1CCN(S(=O)(=O)c2ccc3c(c2)OCCCO3)CC1)N1CCc2ccccc21	2928
C[C@@H]1CN([C@@H](C)CO)C(=O)CCCn2nncc2CO[C@H]1CN(C)S(=O)(=O)c1ccc2c(c1)OCCCO2	3385
FC(F)(F)c1ccc(-c2cccc3c2C2CC3CCN2C(=S)NCCc2ccccc2)cc1 (stereo unspecified)	5859
Cc1cc2nc(-c3ccc(F)cc3)c(CC(C)(C)C)n2c(C)c1Br	5356
COCCNC(=O)C1(C)CCCN(Cc2cc(-c3ccccc3)on2)C1 (stereo unspecified)	3647
CCN(CC(=O)Nc1ccc(NC(C)=O)cc1)C(=O)c1ccc(Sc2nncn2C)c([N+](=O)[O-])c1	3676
Cc1ccccc1S(=O)(=O)NC(=O)C1(C)CCN1C(=O)c1cccc2ccccc12 (stereo unspecified)	3604
COc1ccc(OC)c(C(O)c2ncc(-c3ccc(C(F)(F)F)cc3)[nH]2)c1 (stereo unspecified)	3380
COc1ccc(-c2cc(C(=O)NCc3cccc(C(F)(F)F)c3)[nH]n2)c(C)c1	3998
OC(c1ccccc1)c1nc(-c2cc(F)cc(F)c2)cs1 (stereo unspecified)	3740
CC(C)C(=O)N1CCC1(C)C(=O)NCc1cc(Cl)ccc1F (stereo unspecified)	4216
COc1ccc(-n2nnnc2C(c2ccccc2OC(F)(F)F)N2CCN(C/C=C/c3ccccc3)CC2)cc1 (stereo unspecified)	6204
CCOC(=O)N1CCN(C(=O)C[C@@H]2C[C@@]3(C(=O)OCC)CCC=C3N(Cc3ccco3)C2=O)CC1	5678

The closing two records of the part above lead into the next:
SMILES	Autofluor counter
COc1ccc(-n2nnnc2C(c2ccccc2OC(F)(F)F)N2CCN(C/C=C/c3ccccc3)CC2)cc1 (stereo unspecified)	6204
CCOC(=O)N1CCN(C(=O)C[C@@H]2C[C@@]3(C(=O)OCC)CCC=C3N(Cc3ccco3)C2=O)CC1	5678
Cc1cn([C@H]2C[C@H](O)[C@@H](CNCc3ccccc3)O2)c(=O)[nH]c1=O	3335
COc1ccccc1Cc1c(-c2cccc(Cl)c2)nc2c(C)cc(Br)cn12	4432
Cc1ccc(Nc2n[nH]c(=S)s2)cc1	2744
C=CCOc1ccc(C[C@H](N)C(=O)NC[C@H]2O[C@@H](n3ccc(N)nc3=O)[C@H](O)[C@@H]2O)cc1	3980
CC(=O)OCCN1c2ccccc2Sc2cnccc21	2979
CC(C)(C)c1ccc(CC(=O)N2CCC2(C)C(=O)NS(=O)(=O)c2cccc(F)c2)cc1 (stereo unspecified)	3775
CCN(CC)C(=O)C1=C(C)N(Cc2ccc(OC)cc2)C(=O)C(CC(=O)NC2CC2)C1 (stereo unspecified)	3496
CCN(CC)c1ncnc2c1ncn2[C@H]1CN(CCOC)C[C@@H](CO)O1	2917
COc1ccc2oc3cc(Cl)ccc3c(=O)c2c1	6247
Cc1c2cnn(CC(=O)N3CCOCC3)c(=O)c2c(C)n1Cc1ccc(F)cc1	4160
O=C1CC(=O)OC(c2ccc([N+](=O)[O-])cc2)O1	3773
CN(CC(=O)C(C(N)=O)c1ccccc1)c1ccccc1 (stereo unspecified)	3846
C[C@H]1CN([C@@H](C)CO)C(=O)c2cc(Br)cnc2O[C@@H]1CN(C)C(=O)c1ccncc1	3707
CCCNC(=O)C1(C)CCCN(C(=O)c2ccc(F)c(Cl)c2)C1 (stereo unspecified)	4044
Cc1ccc2nc3n(c(=O)c2c1)-c1cc2ccccc2cc1C(=O)NC3CC(C)C (stereo unspecified)	3400
C[C@H]1CN([C@@H](C)CO)S(=O)(=O)c2ccc(C#Cc3ccccn3)cc2O[C@@H]1CN(C)C(=O)C1CC1	3511
Cc1ccc(NC(=O)C2(C)CCN2C(=O)Cc2cc(F)ccc2F)cc1 (stereo unspecified)	3306
COc1ccc(-c2nc3ccc(Br)cn3c2Cc2cccc(F)c2)cc1OC	6122
COC(=O)c1sccc1S(=O)(=O)Nc1ccc(C(O)(C(F)(F)F)C(F)(F)F)cc1	3813
CC(OC(=O)c1nc(Cl)ccc1Cl)C(=O)NCc1ccccc1 (stereo unspecified)	4291
CCN(CC)CCn1c(=S)[nH]c2cc(C(=O)NCCc3ccc(OC)c(OC)c3)ccc2c1=O	4476
Cc1csc(N=Cc2ccc([N+](=O)[O-])o2)n1	3498
NC(c1csc(NC(=O)Nc2ccccc2Cl)n1)C1CCCCC1 (stereo unspecified)	3210
COc1ccc(S(=O)(=O)N2Cc3ccccc3-n3nncc3C2)cc1	3526

In the list so far, 4 contain a COOH group.
SMILES	Autofluor counter
Cc1oc(-c2cccs2)cc1C(=O)N1CCCC(C)(C(=O)O)C1 (stereo unspecified)	3645
C=C1C(=O)[C@]23C[C@H]1CC[C@H]2[C@]1(C)[C@@H](OC(C)=O)CC[C@@](C)(C(=O)O)[C@H]1C[C@@H]3OC(C)=O	5785
C[C@H](CO)N1C[C@H](C)[C@@H](CN(C)Cc2cccc(C(=O)O)c2)Oc2cc(Br)ccc2S1(=O)=O	3261
CCCCCCCCCCC(C(=O)O)C1(C(=O)O)CCC(=O)O1 (stereo unspecified)	5344

More entries
SMILES	Autofluor counter
C[C@H]1COc2cc(N(C)CCO)ccc2S(=O)(=O)N1	5030
O=S1(=O)CC(N2CCN(CCO)CC2)CN1Cc1ccccc1 (stereo unspecified)	5774
CN(C)CCNC(=O)c1cccc(-c2cnc3c(NC=O)cc(-c4cccs4)cn23)c1	3714
O=C(Nc1ccc(F)c(Cl)c1)c1cc(C2CCCCN2C(=O)C2CC2)on1 (stereo unspecified)	2991
CCCCN(C=O)c1c(CC)nc2ccc(C(=O)Nc3cc(-c4ccccc4)ccc3OC)cn12	3889
CC1(c2nc3ccccc3[nH]2)c2ccccc2C(=O)N1C1CC1 (stereo unspecified)	5003
COc1ccc(NC(=O)C2Cc3c(-c4ccc(NC(C)=O)cc4)ccnc3O2)cc1 (stereo unspecified)	3392
OCCN1CCN(c2ncnc3c2ncn3[C@H]2CN(Cc3cccs3)C[C@@H](CO)O2)CC1	3700
COc1ccc(C(=O)N2CCCCC2c2cc(C(=O)NCc3cccnc3)no2)cc1 (stereo unspecified)	3845
CC(C)NC(=O)N1Cc2cc(C(=O)NCC(F)(F)F)nc(-c3cccc(-c4cc5ccccc5o4)c3)c2[C@@H]1CCO	6406
CN1CCC(N2CCN(C3CN(Cc4ccccc4)S(=O)(=O)C3)CC2)CC1 (stereo unspecified)	5684
COc1cc(NC(=O)Nc2nc(C(N)Cc3ccc(C(F)(F)F)cc3)cs2)cc(OC)c1OC (stereo unspecified)	3685
Cc1ccc(C(=O)N(Cc2nnc(-c3ccccc3Cl)o2)C2CC2)o1	2990
